VDR inhibitor: inhibitors of human vitamin D receptor | Potency, µM, for inactives: max response, negative = inhibition, most hits filed as inhibitors | P11473 | VDR-SRC2-3 peptide fluorescence polarization, 2 h | actives 0.93% (n = 400,000); active means well fitted inhibition curve with a large enough effect; inconclusive means small, poorly fitted or top-dose-only effect, or another doubt; inactive means no such curve, though single readings can be large or run the other way; further: series mostly up to about 120 µM
Target sequence (P11473 whole entry, looked up): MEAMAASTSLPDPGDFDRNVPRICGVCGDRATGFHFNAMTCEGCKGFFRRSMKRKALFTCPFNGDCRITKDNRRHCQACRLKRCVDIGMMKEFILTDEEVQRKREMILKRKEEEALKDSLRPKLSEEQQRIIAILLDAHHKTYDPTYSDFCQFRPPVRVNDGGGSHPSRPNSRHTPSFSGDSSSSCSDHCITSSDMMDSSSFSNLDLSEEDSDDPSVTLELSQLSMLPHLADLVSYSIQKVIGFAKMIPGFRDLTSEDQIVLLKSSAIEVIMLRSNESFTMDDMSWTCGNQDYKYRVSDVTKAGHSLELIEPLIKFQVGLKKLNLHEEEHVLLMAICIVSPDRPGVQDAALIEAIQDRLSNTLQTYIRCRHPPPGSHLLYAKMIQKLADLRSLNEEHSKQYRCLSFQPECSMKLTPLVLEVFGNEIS
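Fluorescence polarization assay measuring small-molecule disruption of VDR binding to the coregulator peptide SRC2-3. Compounds were pin-transferred (23 nl) into the reagent mix and incubated 2 h at room temperature before reading.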
Numbers without * were called inactive; u = inconclusive. On the % scale 0 is the no-effect control and ±100 the full control effect; potency means the concentration at half of the fitted maximal effect.

VDR inhibitor,mol
3%,O=C(Cc1ccccc1)N/N=C/c1ccc(OC(=O)/C=C\c2ccco2)cc1
-9%,O=C(CN1CCCCC1)N1c2ccccc2Oc2ccccc21
1%,CCOC(=O)C1CCCN(C(=O)c2ccccc2NC(=O)C2=C(C)OCCS2)C1 (stereo not drawn)
-10%,Nc1ccc2nc(SCC(=O)c3ccccc3)sc2c1
1%,CC(=O)Nc1ccc(NC(=O)Cc2ccc(S(=O)(=O)N3CCCCC3)cc2)cc1
10%,CC(C)C1S/C(=N/N=C/c2ccco2)NC1=O (stereo not drawn)
0%,Nc1cc(=O)[nH]c(SCC(=O)Nc2cccc(S(=O)(=O)N3CCCCCC3)c2)n1
2%,O=C(c1ccc(=O)oc1)N1CCC(C(O)(c2ccccc2)c2ccccc2)CC1
-10%,COc1nc(N(C)C)nc(N2CC(=O)N(CCNS(=O)(=O)c3ccc(C)cc3)C2=N)n1
14%,COc1cc(-c2nc(SCC(=O)Nc3ccc(C)cc3)c(-c3ccc(F)cc3)[nH]2)cc(OC)c1OC
3%,CC1CCN(C(=O)C2CCN(S(=O)(=O)c3cc(Cl)ccc3Cl)CC2)CC1
-17%,O=c1c(-c2cccs2)nc2cnc(Oc3ccccc3)nc2n1C1CC1
14%,COC(CNc1nc(SC)nc2sc3c(c12)CCN(C)C3)OC
-12%,Cc1ccc(C(=O)N/N=C\c2ccc[nH]2)cn1
8%,O=S(=O)(NCCNS(=O)(=O)c1ccc(F)cc1)c1ccc(F)cc1
-7%,COC(=O)CC(NC(=O)C1CC1)c1ccc2c(c1)OCO2 (stereo not drawn)
-8%,COc1ccc(NC(=O)/C(C#N)=C/c2ccc(OCCN3CCOCC3)c(OC)c2)c(OC)c1
-9%,O=C(Nc1ccc(S(=O)(=O)N2CCOCC2)cc1)c1ccc(Cl)s1
9%,CN(C)c1oc(/C=C/c2ccc(F)cc2)nc1C#N
12%,O=C1CC/C=C\C[C@@H](CC(=O)N(CCO)Cc2ccccc2)C(=O)NC[C@@H](c2ccccc2)O1
-11%,COc1ccc(OCC(=O)Nc2nc3ccc(NC(C)=O)cc3s2)cc1
79µM*,CCc1c(C)sc(NC(=O)C2CCCCC2C(=O)O)c1C(N)=O (stereo not drawn)
-17%,COc1ccc2sc(N(CCN(C)C)C(=O)/C=C/c3cccs3)nc2c1
u,C=C(C(=O)c1ccccc1)C(NC(C)(C)C)c1ccccc1 (stereo not drawn)
14%,c1ccc2c(c1)OCC(c1nn3cnnc3s1)O2 (stereo not drawn)
10%,O=C(O)CCn1ncc2ccccc2c1=O
17%,O=C(COC(=O)c1cccnc1Nc1ccccc1F)NCCN1C(=O)CSC1=O
11%,CCS(=O)(=O)Nc1ccc(C(=O)c2ccccc2)cc1
-1%,CCN1C(=O)/C(=C2/Sc3ccc(OC)cc3N2C)SC1=Nc1cccc(O)c1
-23%,COc1ccc(-c2cc3c(=O)n(CC(=O)NCCCN4CCC(N5CCCCC5)CC4)ncn3n2)cc1

Rewritten as labelled records: entries from further up.
C=C(C(=O)c1ccccc1)C(NC(C)(C)C)c1ccccc1 (stereo not drawn)
  VDR inhibitor = u
CCN1C(=O)/C(=C2/Sc3ccc(OC)cc3N2C)SC1=Nc1cccc(O)c1
  VDR inhibitor = -1%
COc1ccc(-c2cc3c(=O)n(CC(=O)NCCCN4CCC(N5CCCCC5)CC4)ncn3n2)cc1
  VDR inhibitor = -23%
COc1ccc(OCC(=O)Nc2nc3ccc(NC(C)=O)cc3s2)cc1
  VDR inhibitor = -11%

Additional results
VDR inhibitor,mol
3%,Cc1cc(C)cc(NC(=O)Cn2cc(S(=O)(=O)NC(C)(C)C)c(S(=O)(=O)NC(C)(C)C)c2)c1
2%,COc1ccc(C(=O)O)c(O)c1OC
-8%,CN(Cc1ccccc1)C(=O)COC(=O)CNS(=O)(=O)c1ccc2ccccc2c1
u,COc1ccc(/C=N/OCC(=O)Nc2nc3ccccc3s2)cc1OC
-2%,Oc1ccc2c(ccc3[nH]cnc32)c1
-21%,CCCNC(=O)C1(CC2CC(c3ccccc3)=NO2)CCN(C(=O)c2cc(OCC)c(OCC)c(OCC)c2)CC1 (stereo not drawn)
3%,Cc1nonc1NC(=O)CSc1nc(C23CC4CC(CC(C4)C2)C3)nc2ccccc12
9%,CCOc1ccc(N(CC(=O)Nc2ccc(OC)cc2)S(=O)(=O)c2c(C)[nH]c(=O)[nH]c2=O)cc1
17%,COc1ccccc1C1C2=C(COC2=O)Nc2cc3c(cc21)OCO3 (stereo not drawn)
8%,Nc1cccc2c1C(=O)N(c1ccccc1)C2=O
-3%,Cc1ccccc1CSc1nnc([C@@H]2CCCN2)o1
-2%,Cc1cccc(N2CCN(S(=O)(=O)c3ccc(Cl)nc3)CC2C)c1 (stereo not drawn)
-9%,COc1ccc2c(c1OC)CN(C)CCc1cc3c(cc1C(O)C2)OCO3 (stereo not drawn)
-15%,CS(=O)(=O)c1ccccc1C(=O)Nc1cccc(-c2nc3ccccc3o2)c1
9%,COc1ccc(/C(C)=N\Nc2nc(-c3ccc(Cl)cc3)cc(C(F)(F)F)n2)cc1OC
-8%,C=CCNC(=S)Nc1c(C(=O)OC)[nH]c2cc(OC)ccc12
-7%,Cc1cc(C(=O)N/N=C/c2ccc(C)s2)n[nH]1
-18%,CN(C[C@H](c1ccccc1)N(C[C@H](Cc1ccccc1)N(CCc1ccccc1)N=O)N=O)N=O
9%,Cc1cc(C)c(Cn2c3ccccc3c3cnn(CC(=O)NCc4ccc(Cl)cc4)c(=O)c32)c(C)c1
u,CCOC(=O)C1=C(C)NC(C)=C(C(=O)OC)C1c1cccc([N+](=O)[O-])c1 (stereo not drawn)
14%,Cc1cc(=O)[nH]c2nnc(SCC(N)=O)n12
-11%,COc1ccc2nc(NCCCO)[nH]c2c1
u,CN1CCN(C(=O)CN2C(=O)NC(C)(c3ccc4ccccc4c3)C2=O)CC1 (stereo not drawn)
8%,COC(=O)c1cc(OC)c(OC)cc1NC(=O)C1CCCO1 (stereo not drawn)
7%,O=C(Nc1cccc(F)c1)C1CCN(C(=O)c2ccc(Br)cc2)CC1
8%,Nc1nnc(SCC(=O)Nc2cc(S(=O)(=O)N3CCOCC3)ccc2N2CCCC2)s1
5%,CC(C)COc1ccc(C(=O)N/C(=C/c2cccc([N+](=O)[O-])c2)C(=O)O)cc1
-10%,COc1cc(C(O)P(=O)(OCC(C)C)c2ccc(N(C)C)cc2)cc(OC)c1OC (stereo not drawn)
-1%,Cc1ccc(S(=O)(=O)N2C(=O)CCC2C(=O)N2CCN(C)CC2)cc1 (stereo not drawn)
-11%,O=C(CS(=O)c1ccc(F)cc1)Nc1ccccc1Cl (stereo not drawn)
50µM*,Cc1ccc(S(=O)(=O)SCCCSS(=O)(=O)c2ccc(C)cc2)cc1
-7%,O=C(NCC1CC1)C1(C(F)(F)F)C/C(=C\CCO)CCCO1 (stereo not drawn)
-10%,CCc1ccc(NC(=O)C2CCCN(S(=O)(=O)c3ccc4c(c3)oc(=O)n4C)C2)cc1 (stereo not drawn)
-1%,NC1=NN(c2cccc(C(=O)O)c2)C(=O)C1
20%,Cc1ccc(S(=O)(=O)N(C)c2nonc2C)cc1
-11%,Cc1nc(NC(=O)CCl)sc1C(=O)N(C)C
5%,CCCN(C(=O)Cn1ncc2c([nH]c3ccccc32)c1=O)c1ccccc1C
-7%,CC(=O)c1sc(NC(=O)CCS(=O)(=O)c2ccc(C)cc2)nc1C
8%,Cc1cc(C(F)(F)F)n(-c2ccc(N)cc2)n1
-3%,Cc1onc(-c2c(Cl)cccc2Cl)c1NC(=O)N1CCSCC1
-18%,C=CCn1c(O)c(N=Nc2ccccc2O)c2ccccc21
-18%,O=C1OC(/C(=C\NCc2ccccc2)[N+](=O)[O-])c2ccccc21 (stereo not drawn)
-7%,CCC(C)C(NC(=O)OC(C)(C)C)C(=O)NC1COC2CC(n3ccc(NC(C)=O)nc3=O)OC12 (stereo not drawn)
-11%,CC1CCN(CC(O)COC2CC(C)CCC2C(C)C)CC1 (stereo not drawn)
-1%,COc1ccc(/C(C)=N/Nc2nc3ccccc3nc2C)cc1OC
12%,Cc1ccc(NC(=O)CSc2nnc3scc(-c4ccccc4)n23)cc1
-7%,O=C(Nc1ccc2c(c1)CCC2)C1CCCO1 (stereo not drawn)
-11%,COc1ccc(C)cc1N(CC(=O)NCCSCc1cccc(Cl)c1)S(C)(=O)=O
6%,Cn1nc(-c2ccccc2)c(CSc2cccc(Cl)c2)c1Cl
12%,O=[N+]([O-])c1ccccc1S(=O)(=O)NC1CCCCCCC1

(continued)
VDR inhibitor,mol
5%,O=C(COc1cccc2c1CCN(Cc1ccccc1F)C2=O)N1CCCCC1
11%,COc1cc(S(=O)(=O)N2CCOCC2)ccc1NC(=O)COC(=O)CC12CC3CC(CC(C3)C1)C2
1%,COc1ccc(OC)c(CNC(=O)c2ccc(NC(=O)c3nsc4ccccc34)cc2)c1
-2%,COC(=O)CS(=O)(=O)c1ccc(C)cc1
6%,COc1ccccc1N(CC(=O)Nc1ccc(C)cc1Cl)S(=O)(=O)c1cccs1
12%,Cc1cc(C)nc(N/N=C/c2c[nH]c3ccccc23)n1
-21%,O=C(NNC(=O)c1cc2ccccc2o1)c1ccc(F)cc1
9%,CC(=O)N1CCC(N(CCN2CCOCC2)C(=S)Nc2c(C)cccc2C)CC1
10%,COc1cccc(C(=O)COC(=O)c2cccs2)c1
19%,Cc1ccc(N(CC(=O)Nc2ccc(C)cc2C)S(=O)(=O)N2CCCC2)cc1

Part of the list above, with bars between the fields:
canonical_smiles | VDR inhibitor
COc1cccc(C(=O)COC(=O)c2cccs2)c1 | 10%
Cc1ccc(N(CC(=O)Nc2ccc(C)cc2C)S(=O)(=O)N2CCCC2)cc1 | 19%

Additional structures follow.
VDR inhibitor,mol
19%,Cc1ccc(CNC(=O)CCNC(=O)c2ccco2)cc1
-28%,C#CCOCCOCCOCCNc1nc(N2CCN(C(=O)[C@H](CCCCN)n3cc(CN)nn3)CC2)nc(N2CCN(C(=O)[C@H](CCCCN)n3cc([C@@H](N)CC(N)=O)nn3)CC2)n1
9%,COc1ccc(S(=O)(=O)N2CCC(C(=O)NCc3ccccc3)CC2)cc1OC
11%,Cc1ccccc1Nc1nnc(SCc2cc(=O)n3ccsc3n2)s1
-19%,CCCCn1c(CN2CCN(c3ccc(OC)cc3)CC2)nc2c1c(=O)[nH]c(=O)n2C
u,COc1ccc(C(=O)CSc2n[nH]c(N)n2)cc1
26%,CCNS(=O)(=O)c1ccc(C(=O)OCc2cc(=O)oc3cc(OC)ccc23)cc1
-4%,CCCCc1ccc(NC(=S)NCc2cccs2)cc1
-6%,CC(C)N(Cc1nccn1C)C(=O)c1cc(COc2ccc(F)cc2Cl)on1
u,CCOc1ccc(C(=O)/C=C/c2cc(OC)c(OC)c(OC)c2)cc1
u,CCC(C)Nc1nc(-c2c[nH]c3ccccc23)cs1 (stereo not drawn)
-11%,O=C(c1cc(C(F)(F)F)cc(C(F)(F)F)c1)N1CCC2(CC1)CN(c1ccccc1)C2
-3%,Cc1ccc(CS(=O)Cc2ccc(C(=O)N3CCN(c4ccccn4)CC3)o2)cc1 (stereo not drawn)
-1%,CC[C@]12c3[nH]c4ccccc4c3CCN1C(=O)C(CC(=O)NCc1ccco1)C[C@@H]2C(=O)N1CCN(C(=O)C2CC2)CC1 (stereo partly drawn)
-2%,CC1=CC(C)(C)n2c(O)c(N=N)c3c(C)c(C)cc1c32
-5%,C=CCc1cccc(CNc2c(C)n(C)n(-c3ccccc3)c2=O)c1O
-9%,COc1cc2cc(C(=O)N3CCc4ccccc4C3)[nH]c2cc1OC
23%,CC(C)C(O)(CC#CCN1CCCC1)c1ccccc1 (stereo not drawn)
-19%,CN(C)C(CNC(=O)CSC(=S)N1CCCC1)c1ccccc1 (stereo not drawn)
6%,Cc1ccc(C)c(-c2nnc(NC(=O)CS(=O)(=O)c3ccccc3)o2)c1
-21%,COc1ccc(CCNC(=O)CCNC(=O)c2ccco2)cc1OC
9%,O=C(NCc1ccco1)/C(=C/c1cccnc1)NC(=O)c1ccco1
-7%,O=C(NCC1CCCO1)C1CCN(C2CCN(C(=O)Cc3ccsc3)CC2)CC1 (stereo not drawn)
-22%,CCOc1ccc(/C=N/N2C(=O)C(CC(=O)Nc3ccc(F)cc3F)SC2=NC)cc1OC (stereo not drawn)
-8%,O=C(Cn1c(=O)oc2cc(S(=O)(=O)NCc3ccccc3)ccc21)NCc1ccco1
-4%,O=C(Nc1cc(S(=O)(=O)Nc2ccc(Cl)cc2)ccc1O)c1ccc(F)cc1F
u,CC[C@]1(c2ccccc2OC)C(=O)N(C(=O)OC)N1C(=O)OC
0%,Cc1cccn2c(=O)cc(CSc3nnc(NC(=O)COc4ccccc4)s3)nc12
u,COc1ccc(-c2csc(NC(=O)C3CC(=O)N(c4ccc5c(c4)OCCO5)C3)n2)cc1 (stereo not drawn)
0%,O=C(CCN1C(=O)c2cccc3cccc(c23)C1=O)Nc1ccccc1
29%,O=C(Nc1cccc(S(=O)(=O)NCc2ccco2)c1)c1ccc(Cl)cc1
5%,CN(C)S(=O)(=O)N(CC(=O)N1CCN(c2ccccc2F)CC1)c1ccccc1
8%,Cc1nc(N2CCOCC2)nc(OCCN(C)C)c1[N+](=O)[O-]

An excerpt from above in order of length of the SMILES, lowest first:
VDR inhibitor,mol
u,CC[C@]1(c2ccccc2OC)C(=O)N(C(=O)OC)N1C(=O)OC
29%,O=C(Nc1cccc(S(=O)(=O)NCc2ccco2)c1)c1ccc(Cl)cc1
5%,CN(C)S(=O)(=O)N(CC(=O)N1CCN(c2ccccc2F)CC1)c1ccccc1
-22%,CCOc1ccc(/C=N/N2C(=O)C(CC(=O)Nc3ccc(F)cc3F)SC2=NC)cc1OC (stereo not drawn)
u,COc1ccc(-c2csc(NC(=O)C3CC(=O)N(c4ccc5c(c4)OCCO5)C3)n2)cc1 (stereo not drawn)

Compound activity from PubChem.

An excerpt. The share of hits here may be higher or lower than overall.
